Source: PubChem BioAssay
MT1-MMP act inh = blockers of MT1-MMP proenzyme processing, primary screen, HT1080 RFP-PRO-GFP cells, GFP/RFP fluorescence. GFP/RFP ratio fluorescence, overnight; percent of plate control window, DMSO zero. GFP/RFP ratio change, % at 20 µM. 360,000 compounds, 0.061% hits. AID 651647, 2012;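 active means GFP/RFP ratio change of at least 30% with cell ATP level not reduced by more than half and red fluorescence within 50% of control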; further: strong numbers were not always called active
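Test system: HT1080 RFP-PRO-GFP cells; Benchmarks: DMSO and RFP-L50D-GFP cell wells; Timing: cells overnight before dosing, compound overnight, 37 °C, 5% CO2; Compound: one 20 µM compound dose with 1% DMSO; Read-out: GFP/RFP fluorescence ratio.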
PABP polyA inh = PABP poly(A) RNA binding inhibitors, primary screen, biochemical, fluorescence polarization, uHTS; Polyadenylate-binding protein 1 (Homo sapiens), P11940; inhibition, % at 35 µM; 290,000 compounds, 1% hits; AID 2014, 2009;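 active means 50% or more with normal probe brightness, or confirmed in later tests; inconclusive means above 50% with abnormal brightness, or retests that disagree; inactive means below 50% or failed in later tests; about a fifth of its hits are not listed in these tables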;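 further: calls also rest on retests at 20 µM and on dose response follow-up; controls were probe without protein and protein plus probe with vehicle; some compounds called inactive have numbers as strong as hits; many hits fall short of the cut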
Target sequence (P11940 whole entry, looked up): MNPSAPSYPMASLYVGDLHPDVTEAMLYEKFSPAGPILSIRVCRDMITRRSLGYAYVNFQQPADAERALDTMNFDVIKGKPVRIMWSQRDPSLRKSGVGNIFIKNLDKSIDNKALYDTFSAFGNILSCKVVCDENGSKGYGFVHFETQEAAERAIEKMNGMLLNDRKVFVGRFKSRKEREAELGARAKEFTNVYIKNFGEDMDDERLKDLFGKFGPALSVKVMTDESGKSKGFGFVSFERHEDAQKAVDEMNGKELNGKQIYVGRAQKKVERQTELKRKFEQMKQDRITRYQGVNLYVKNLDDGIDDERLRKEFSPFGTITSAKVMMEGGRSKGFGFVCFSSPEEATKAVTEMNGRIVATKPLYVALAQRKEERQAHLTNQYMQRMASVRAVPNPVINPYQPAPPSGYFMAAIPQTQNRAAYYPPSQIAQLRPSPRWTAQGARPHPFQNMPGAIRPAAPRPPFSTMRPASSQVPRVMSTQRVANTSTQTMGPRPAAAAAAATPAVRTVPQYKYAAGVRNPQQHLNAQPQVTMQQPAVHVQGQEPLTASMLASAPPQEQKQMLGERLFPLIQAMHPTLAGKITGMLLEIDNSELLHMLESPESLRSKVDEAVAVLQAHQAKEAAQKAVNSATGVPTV
Env fusion inh = inhibitors of HIV-1 Env-driven cell-cell fusion, primary screen, HeLa-JRFL effector, CEM21 target cells, luciferase; inhibition, % at 12.3 µM; AID 651610, 2012; 360,000 compounds, 1.1% hits;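 active means mean replicate inhibition score of at least 50 and every replicate individually at or above 50; inconclusive means only one of the two criteria met; inactive means mean below 50 and not all replicates reaching 50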;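 further: 0% = plate neutral controls and 100% = maraviroc near 300 nM; one replicate is shown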
Rce1 inh = yeast Rce1p protease inhibitors, primary screen, biochemical, fluorescence, cell-free homogeneous | yeast membranes, quenched prenylated peptide cleavage fluorescence | calls only | 290,000 compounds, 0.27% hits | CAAX prenyl protease 2 (Saccharomyces cerevisiae (strain ATCC 204508 / S288c)), Q03530;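 active means fall in fluorescence gain of 50% or more versus controls, with final raw signal at or below 3038400; inconclusive means same 50% fall but final raw signal above 3038400; inactive means fall in fluorescence gain under 50%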;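 further: plate controls were neutral control wells for no effect and wells lacking membranes for full effect; tested at 10 µM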
CSC inhib = cancer stem cell viability inhibitors, primary screen, luminescence. 300,000 compounds, 1.1% hits. cancer stem cell-like cells viability. inhibition, % at 7.5 µM;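 active means mean at 75% or more and at least half the replicates too; inconclusive means mean and replicates disagree; tested in HMLE shEcad cells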;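 further: 0% = median of negative and 100% = median of positive control wells; the first replicate is given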
eIF4H inh = human eIF4H binding inhibitors, primary screen, translation initiation inhibitor project, biochemical, uHTS, fluorescence polarization | Eukaryotic translation initiation factor 4H (Homo sapiens), Q15056 | eIF4H fluorescence polarization binding assay | inhibition, % at 35 µM | 290,000 compounds, 0.94% hits | AID 2012, 2009;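 active means 50% or more with normal probe brightness, or confirmed in later tests; inconclusive means above 50% with abnormal brightness, or retests that disagree; inactive means below 50% or failed in later tests; about a fifth of its hits are not listed in these tables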;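 further: calls also rest on retests at 20 µM and on dose response follow-up; 0% = protein and probe with vehicle and 100% = probe without protein; strong numbers were not always called active; many hits fall short of the cut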
UUG fidelity = modulators of yeast start codon fidelity, primary screen, whole organism, S. cerevisiae, single point, plate reader; S. cerevisiae UUG-firefly luciferase reporter, luminescence/redox ratio; activity score, % at 18.7 µM; 350,000 compounds, 0.13% hits; AID 602363, 2012;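 active means replicate mean at a twofold rise or more, about +100% in these data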;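 further: firefly luciferase made from a UUG start codon reports start codon fidelity; reporter light over untreated wells divided by growth signal over untreated wells; some hits fall short of that in this replicate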
eIF4H inh retest = further read-out of eIF4H inh, marked with its call; inhibition, %; compound at 20 µM; confirmation average;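 mean of two retest wells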
PABP polyA inh retest = also measured in PABP polyA inh; calls as there; inhibition, %; compound at 20 µM; confirmation repeats;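 mean of two retest wells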
MT1-MMP act inh RFP = second read-out of MT1-MMP act inh, no call of its own (marks repeat the call); RFP signal change, %; measured here: RFP expression control read;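 0 = vehicle wells; hits needed this value within 50% of zero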
* = called active by the depositor; i = inactive; ? = inconclusive; . = no result given; + = active, no number; & = joins results of further samples.

SMILES	MT1-MMP act inh	MT1-MMP act inh RFP	PABP polyA inh	Env fusion inh	Rce1 inh	CSC inhib	eIF4H inh	UUG fidelity	others
O=C1CCCN1CCc1cccc2ccccc12	-0.2	-0.6	.	12.7	.	.	.	-15.6
CCOC(=O)c1snc(-c2ccc(F)cc2)c1N	-4.2	0.2	-1.4	-175.6	i	-11.9	-7.6	-14.8
CCCOc1ccccc1N/C(=N/c1nc(C)cc(C)n1)NC(=O)Nc1ccc(Cl)cc1	-2.5	-7.3	5.3	.	i	2.7	-2.5	-14.9
COc1ccc(NC(=O)CN(C)C(=O)c2cccc(S(=O)(=O)N3CCCc4ccccc43)c2)cc1	1.7	-5.6	.	-3.8	i	-9.7	.	9.6
Cc1cc(OCC(=O)NC(Cc2c[nH]c3ccc(O)cc23)C(=O)O)c2c(C)c(C)c(=O)oc2c1 (stereo unspecified)	1.9	5.1	27.7	.	i	-7.9	41.4	-7.3
CCOc1ccc(NC(=O)CSc2nc3[nH]ncc3c(=O)[nH]2)cc1	-0.2	1.0	.	0.9	i	-9.3	.	.
O=S(=O)(c1cccc(-c2csc(-c3cccnc3)n2)c1)N1CCOCC1	-5.6	0.8	-6.6	-32.0	i	-14.4	-1.0	-8.0
Cc1noc(NS(=O)(=O)c2ccc(NC(=O)C(CC(C)C)N3C(=O)c4ccccc4C3=O)cc2)c1C (stereo unspecified)	-3.0	0.2	-9.2	9.8	i	-14.5	-6.4	.
CCc1nc(SCC(=O)N2CCCC2)c2ccccc2n1	-3.7	-4.7	-17.4	.	i	13.5	-4.1	-14.1
CCNS(=O)(=O)c1ccc(NS(=O)(=O)c2cc(C)ccc2C)cc1	3.1	6.2	6.1	.	i	0.3	-4.8	-11.7
CSc1ccccc1NC(=O)CN(c1ccccc1Br)S(C)(=O)=O	1.8	5.2	10.8	-15.4	i	-2.0	-7.1	-6.3
CC(=O)c1cccc(NC(=O)C(C)OC(=O)c2cccc(S(=O)(=O)N3CCN(C)CC3)c2)c1 (stereo unspecified)	-1.6	1.9	.	-2.5	.	-16.9	.	-5.1
COc1ccc(NC(=S)N/N=C/c2cccn2Cc2ccc(F)cc2Cl)cc1	-2.1	-11.6	9.6	33.0	i	10.1	4.8	.
NNC(=O)C(Cc1ccc(O)cc1)N1Cc2ccccc2C1=O (stereo unspecified)	-0.8	2.4	4.7	11.2	i	-18.6	-1.8	-5.5
CCC1Oc2ccc(C)cc2N(CC(=O)N(Cc2ccncc2)Cc2ccco2)C1=O (stereo unspecified)	-0.1	-0.2	7.2	-45.6	i	1.2	5.9	-23.6
COc1ccc(-c2cc(C(=O)Nc3c(C)n(C)n(-c4ccccc4)c3=O)c3ccccc3n2)cc1	7.7	0.6	-1.8	-9.5	?	.	-10.7	-6.6
C=CCn1c(Oc2ccccc2F)nc2c1c(=O)n(C)c(=O)n2C	-11.0	-9.5	-2.6	38.5	i	-22.2	-5.9	-5.8
O=C(O)Cc1ccc2c(c1)N(S(=O)(=O)c1cccc(C(F)(F)F)c1)CC(C(=O)O)O2 (stereo unspecified)	1.5	4.4	3.8	-10.4	.	-9.3	-17.3	-13.2
Cc1nn(C(C)C(=O)N2CCc3ccccc32)c(C)c1[N+](=O)[O-] (stereo unspecified)	-2.4	2.1	7.6	.	i	-17.4	-6.1	-18.3
O=C(CSc1nncn1-c1cccnc1)N(c1ccccc1)c1ccccc1	-4.5	-2.0	-5.8	-3.0	i	0.8	-6.4	.
C=CCNC(=S)Nc1ccc(OC)c(S(=O)(=O)N2CCOCC2)c1	-0.1	1.5	-15.4	2.0	i	-6.9	-6.4	-15.4
COc1ccc(OC)c(-c2nc(C)sc2CC(=O)O)c1	-1.5	2.1	4.5	-15.6	i	-4.8	-10.8	-12.0
COc1ccc(N=c2oc3cc(O)ccc3cc2C(=O)NCC2CCCO2)c(OC)c1 (stereo unspecified)	.	.	?	-126.4	i	-6.2	?	-17.3
CNc1nc(C)c([N+](=O)[O-])c(Nc2ccc(OC)cc2)n1	-1.1	-2.0	4.6	13.7	i	-11.8	2.5	-3.7
O=C(NCCCn1ccnc1)/C(=C\c1cccnc1)NC(=O)c1ccccc1Br	-3.3	2.7	-5.7	3.6	i	-4.3	-2.2	-22.4
COC(=O)c1ccc(NC(=O)C23CCC(C)(C(=O)O2)C3(C)C)cc1 (stereo unspecified)	2.9	2.0	-3.5	-42.9	i	-8.3	-5.7	-15.6
Cc1nc(C(F)(F)F)c(C(=O)NC(=O)Nc2ccc(OC(F)(F)F)cc2)s1	2.7	4.9	-10.7	-2.1	i	3.6	-5.9	6.5
Cc1cnn2c(C3CC3)ccnc12	-5.4	1.1	4.9	-2.6	i	-1.8	3.6	.
O=C(O)c1cc([N+](=O)[O-])cc2c1nnn2O	14.6	-1.2	-10.5	8.0	i	0.0	-6.3	.
CC(C)CN(C)Cc1c(C(=O)N2CCc3ccccc3C2)nc2ccc(Cl)cn12	-2.6	-3.7	1.0	19.7	i	-2.1	6.1	1.1
O=C(NCCn1cc(SCc2ccccc2)c2ccccc21)c1ccccc1F	-4.2	-13.4	6.0	29.7	i	34.2	6.9	-14.5
CCc1c(C)nc2cc(-c3ccc(OC)c(OC)c3)nn2c1N1CCC(C)CC1	13.4	-3.8	-5.3	.	i	10.7	-1.3	.
Cc1c(P(=S)(c2ccccc2)c2ccccc2)[n+]2ccccc2n1C/C=C/c1ccccc1	-12.4	-35.7	.	13.4	.	.	.	-14.5
COc1cc(C(=S)N2CCOCC2)cc(OC)c1OC(=O)c1ccccc1Cl	1.9	-2.8	.	16.4	.	.	.	-37.4
Cc1ccc(S(=O)(=O)N2CCC(C(=O)Nc3ccc(S(=O)(=O)N4CCCC4)cc3)CC2)cc1	-7.1	-9.1	.	11.2	i	.	.	7.6
CC[C@]12c3[nH]c4cc(-c5ccco5)ccc4c3CCN1C(=O)[C@@H](CC(=O)NCCCn1ccnc1)C[C@@H]2C(=O)N1CCN(C(=O)c2ccco2)CC1	0.8	2.7	.	-18.0	.	.	.	-7.6
O=C(OCc1cccs1)c1ccccc1NS(=O)(=O)c1ccc2c(c1)OCCO2	7.8	-3.0	6.5	7.9	i	23.6	2.3	-10.8
Cc1ccccc1N(CC(=O)NCCc1ccccc1)C(=O)CCC(=O)Nc1ccccn1	0.8	1.1	-10.1	-0.2	i	-7.7	7.4	-7.1
Cc1ccc(NC(=O)CN2C(=O)NC(Cc3c[nH]c4ccccc34)C2=O)cc1S(=O)(=O)N1CCCCC1 (stereo unspecified)	8.8	-8.4	4.4	-4.7	i	23.5	-3.1	.
Cc1ccc2nc(CSc3nnc(-c4ccco4)n3-c3ccccc3)cc(=O)n2c1	0.7	5.7	.	-22.3	i	-4.2	.	12.2

For reference, some entries already given:
SMILES	MT1-MMP act inh	MT1-MMP act inh RFP	PABP polyA inh	Env fusion inh	Rce1 inh	CSC inhib	eIF4H inh	UUG fidelity	others
Cc1ccc(NC(=O)CN2C(=O)NC(Cc3c[nH]c4ccccc34)C2=O)cc1S(=O)(=O)N1CCCCC1 (stereo unspecified)	8.8	-8.4	4.4	-4.7	i	23.5	-3.1	.
Cc1ccc2nc(CSc3nnc(-c4ccco4)n3-c3ccccc3)cc(=O)n2c1	0.7	5.7	.	-22.3	i	-4.2	.	12.2

Other entries:
SMILES	MT1-MMP act inh	MT1-MMP act inh RFP	PABP polyA inh	Env fusion inh	Rce1 inh	CSC inhib	eIF4H inh	UUG fidelity	others
COc1cc2[nH]c(=S)n(Cc3ccc(C)cc3)c(=O)c2cc1OC	4.1	-5.4	2.6	0.0	i	19.9	18.0	.
CNC(=O)C[C@H]1C(=O)N(c2ccc(Br)cc2)C[C@@H]1C	-0.7	0.0	.	-11.8	.	.	.	-3.8
O=C(O)CCC(=O)Nc1ccc(F)cc1	-5.0	-1.7	1.5	-2.6	i	-3.6	15.7	-2.1
CCOC(=O)c1c(NC(=O)CSc2nnc3c(n2)[nH]c2ccc(F)cc23)sc(C(C)=O)c1C	0.3	-5.4	-10.7	-17.1	.	-1.6	0.4	-17.7
Cc1cc(C)n(-c2nc(N(C)C)nc(N(C)C)n2)n1	7.2	5.1	-4.3	.	i	-3.8	-5.6	-27.4
CC(C)(C)OC(=O)N/N=C/c1cccc([N+](=O)[O-])c1	-5.3	-6.8	8.1	-10.4	.	6.0	18.0	.
COc1cc2c(cc1OC)C(c1cccc(Cl)c1Cl)CC(=O)N2 (stereo unspecified)	4.8	-4.4	2.3	8.3	i	-15.3	-8.6	-25.1
Cn1c(CN2CCOCC2)nc2cc(NC(=O)COc3ccccc3)ccc21	0.8	-6.0	1.3	19.7	i	-10.4	1.9	-23.9
CC(=O)n1cc([C@@H]2C=C(C(=O)N3CCOCC3)O[C@H](OCCCCO)C2)c2ccccc21	3.4	3.9	10.5	2.6	i	7.3	11.2	-15.1
C[C@@H]1CN([C@H](C)CO)C(=O)CCCn2cc(nn2)CO[C@H]1CN(C)S(=O)(=O)c1ccc2c(c1)OCCCO2	1.5	1.6	.	0.5	.	.	.	-16.0&-4.8
O=C(NCc1ccc(Cl)c(Cl)c1)c1cccnc1	-7.1	-3.7	-14.8	.	i	11.9	-6.3	-18.1
Clc1ccccc1CN1CCN(CCCc2ccccc2)CC1	0.8	4.2	1.5	-1.3	i	.	13.0	.
CSc1ccccc1NC(=O)COc1ccc(Cl)cc1C	-0.5	-1.7	1.7	-18.3	i	11.9	-0.3	.
CC(=O)c1c(C)[nH]c2ccccc2c1=O	8.6	7.3	-5.5	-7.7	i	16.3	-1.6	-14.1
CCCCCCCCCCC[N+](C)(C)CC/C=C1/c2ccccc2Sc2ccc(Cl)cc21	-24.4	-22.8	19.2	.	+	58.9	23.9	-29.8
COc1ccc(NC(=O)CSc2nc3c(c(=O)n2C)SCC3)cc1OC	1.9	-1.5	9.7	8.1	i	-16.5	-6.4	-24.0
C/C(=N\NC(=O)CNc1cccc2ccccc12)c1ccc(Br)s1	2.6	6.4	-1.1	9.9	i	10.2	61.6	.	eIF4H inh retest=48.7;PABP polyA inh retest=48.6
O=C(NCCCCc1ccccc1)C1CC(c2ccc([N+](=O)[O-])cc2)=NO1 (stereo unspecified)	-2.5	0.5	-1.7	-14.6	i	0.9	2.1	-20.1
O=C(NCCCN1CCOCC1)c1ccc(CS(=O)(=O)c2c(Cl)cccc2Cl)o1	0.8	4.9	1.2	-12.0	i	-11.3	-4.6	-10.4
Cc1ccc(S(=O)(=O)N2C[C@H]3[C@H]4C(=O)N(c5ccccc5)C(=O)[C@H]4CC(=O)[C@H]3[C@@H]2c2cccc3ccccc23)cc1	5.4	5.0	.	-8.8	.	.	.	-0.4
Cc1ccc(OCC(=O)Nc2ccc3c4c(cccc24)CC3)c(C)c1	-0.7	-0.7	-8.9	-19.4	i	16.6	-6.6	.
Cc1cccc2nc(-c3cccc(NC(=O)c4ccc(Cl)cc4)c3)cn12	5.0	3.0	8.4	0.2	i	25.0	-1.3	3.4

Not a hit list. About 2.9% of those tested had a hit in this group.
